RE007 growth inh: qHTS Assay for Inhibitors of the HIV-1 protein Vpr | S. pombe RE007 Vpr strain, BacTiter-Glo ATP luminescence, 24 h; control for the full effect not named in the record | Potency, µM (titrated, usually from 92.2 µM), for the others: at the top dose activity change, negative = less growth | hit rate 0.21% among 360,000; active = well fitted falling curve with a large enough effect; inconclusive = small, poorly fitted or top-dose-only effect; inactive = no such curve, though single readings can be large or run the other way;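 also: % is scaled to controls: 0 for no effect and ±100 for the full control effect; nearly all actives have a fitted effect of over 50% in size; the assay follows cell death caused by Vpr and the record does not say whether a fall means rescue or toxicity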
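Fission yeast strain RE007, carrying one chromosomally integrated HIV-1 vpr copy, was seeded at OD 0.01 in PMG+AL medium with 23 nL pinned compound. After 24 h at 30 °C and 99% humidity, viability was read by BacTiter-Glo luminescence.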
StopGo reporter: High Throughput Screening for Foot and Mouth Disease Virus Antivirals; human cells with a luciferase reporter of 2A StopGo recoding; control for the full effect not named in the record; Potency, µM (doses to about 57.9 µM), for the others: at the highest dose signal change, negative = less light; hit rate 1.2% among 410,000; AID 1159524, 2015; active = well fitted falling curve with a large enough effect; inconclusive = small, poorly fitted or top-dose-only effect; inactive = no such curve, though single readings can be large or run the other way; tested in HEK293T cells; also: % is scaled to controls: 0 for no effect and ±100 for the full control effect; nearly all actives have a fitted effect of over 45% in size; luciferase light after 4 h
SARS PLP yeast: qHTS of Yeast-based Assay for SARS-CoV PLP; Potency, µM (top dose mostly 32.9 µM), for the others: top-dose activity, positive = growth rescue; S. cerevisiae expressing SARS-CoV PLpro, growth rescue; control for the full effect not named in the record; AID 485353, 2010; hit rate 0.19% among 330,000; active means well fitted rising curve with a large enough effect; inconclusive means small, poorly fitted or top-dose-only effect; inactive means no such curve, though single readings can be large or run the other way; also: 0% is about no effect; nearly all actives have a fitted effect of over 55% in size; growth read by luminescence after 48 h
* hit, by the source's call; u = inconclusive; & = joins results of further samples; [ ] = dose if it differs, or a comment. Potency is read from the fitted curve at half-maximal effect. Not all compounds are listed; rates above refer to the full screens.

SMILES	RE007 growth inh	StopGo reporter	SARS PLP yeast
CCCCN(C(=O)C1=NN(c2cc(C)ccc2C)C(=O)CC1)c1c(N)n(CCC)c(=O)[nH]c1=O	-3%	-22%	0%
C=CCSc1ccc(S(=O)(=O)N2CCN(C)CC2)cn1	-15%	3%	-8%
O=C(COC(=O)c1ccc(Br)o1)NCC(=O)Nc1ccc(F)cc1	8%	-7%	7%
COc1cccc(-n2nnc(S(=O)(=O)c3ccc(C)cc3)c2N)c1	-1%	-9%	1%
CCOC(=O)C1CCN(C(=O)c2cc3ccccc3oc2=O)CC1	-2%	-5%	0%
CCN(CC(=O)NCc1cccs1)C(=O)c1cccc(S(=O)(=O)N2CC(C)OC(C)C2)c1 (stereo not given)	-6%	-15%	4%
O=C1N[C@H]2CC=C[C@H]2Nc2ccccc21	2%	-20%	0%
Cc1noc(C)c1NC(=O)Nc1cccc2c1O[C@H](CN(C)S(C)(=O)=O)[C@@H](C)CN([C@H](C)CO)C2=O	13%	-15%	1%
C[C@H](CO)N1C[C@H](C)[C@@H](CN(C)C(=O)Nc2ccc(F)cc2)Oc2ccc(NS(C)(=O)=O)cc2C1=O	8%	-15%	-15%
Cc1ccccc1NCC(=O)Nc1cc(S(=O)(=O)N2CCCCC2)ccc1C	14%	3%	0%
Cn1c(SCC(=O)NNC(=O)Cc2ccccc2)nc2ccccc2c1=O	7%	1%	-2%
CCCCCCSc1ccc(-c2nc3ccc(C)cn3c2NCc2ccccc2)cc1	-2%&-14%	u	2%
O=C(O)c1ccccc1NC(=S)NC(=O)c1sc2ccccc2c1Cl	-18%	8%	0%
CC(C)(C)OC(=O)[C@H](Cc1ccccc1)NC(=O)c1nc[nH]c1C(=O)N[C@@H](CCCCN)C(=O)OC(C)(C)C	-1%	-10%	6%
C[C@H](CO)N1C[C@H](C)[C@@H](CN(C)CC2CCCCC2)Oc2c(NS(=O)(=O)c3cn(C)cn3)cccc2C1=O	8%	124%[activator]	3%
CN(CC(=O)Nc1ccc(F)c(F)c1F)C(=O)c1n[nH]c(=O)c2ccccc12	-10%	-13%	3%
O=C(NC(=S)NCc1cccnc1)c1ccc([N+](=O)[O-])cc1	-6%	0%	3%
N#Cc1cccnc1N1CCN(C(=O)c2cccc3c2C(=O)c2ccc(-c4ccc(Cl)c(C(F)(F)F)c4)cc2S3(=O)=O)CC1	12%	-17%	-4%
CCN(CC(=O)NCc1cccs1)C(=O)c1ccc(Cl)c(Cl)c1	1%	-16%	6%
COc1cc(CC(=O)OCC(=O)Nc2ccc(N(C)C)cc2)cc(OC)c1OC	1%	2%	7%
CCOc1ccc(CN(C)C(=O)c2cccc(S(=O)(=O)N3CCCC3)c2)cc1OC	-5%	-2%	-2%
COc1ccc(N2C(=O)CC(Sc3nnc(-c4ccccc4F)n3C)C2=O)cc1 (stereo not given)	-25%	-10%	0%
CC1CCc2nc3ccc(S(=O)(=O)N4CCC(C(=O)N5CCCCCC5)CC4)cc3c(C(=O)O)c2C1 (stereo not given)	4%	-9%	-1%
COc1ccc(OCC(=O)OCC(=O)Nc2ccc3[nH]c(=O)[nH]c3c2)cc1	-2%	-8%	5%
Cc1ccc(CNC(=O)C(N=C2NS(=O)(=O)c3ccccc32)C(C)C)cc1 (stereo not given)	-3%	-3%	2%
O=C(O)CCN1C(=O)/C(=C\c2ccncc2)SC1=S	4%	-7%	0%
CC(C)NC(=O)N(C)C[C@H]1Oc2ccc(NC(=O)C3CC3)cc2C(=O)N([C@H](C)CO)C[C@@H]1C	10%	-10%	3%
Cc1ccc(NC(=O)C2CC(=O)Nc3nncn32)cc1 (stereo not given)	-3%	-1%	-1%
CCNS(=O)(=O)c1ccc(Br)c(C(=O)OC(C)C(=O)NCC2CCCCC2)c1 (stereo not given)	4%	53%[activator]	-13%
Nc1ccc(Sc2nc3ccccc3[nH]2)cc1	0%	1%	1%
Cc1ccc([N+](=O)[O-])c(C)[n+]1C	-11%	-13%	-3%
CC(=O)C(Sc1ccc2nnc(-c3cccnc3)n2n1)C(C)=O	-1%	9%	-4%
COc1cccc(/C=C/C(=O)OCC(=O)N2CCN(c3ccccc3)CC2)c1	-9%	-15%	2%
C[C@H](CO)N1C[C@H](C)[C@@H](CN(C)Cc2ccc(Cl)c(Cl)c2)Oc2ccc(NC(=O)Cn3cnnn3)cc2C1=O	-7%	2%	-7%
C=CCOc1ccc(Br)cc1/C=C1/SC(=Nc2ccc(C(=O)O)cc2)NC1=O	14%	2%	2%
CCN(C(=O)COC(=O)/C=C/c1cnc2ccccc2n1)c1ccccc1	5%	-26%	-1%
O=C(c1cccc(S(=O)(=O)Nc2ccc(F)cc2)c1)N1CCC1	-6%	34%[activator]	3%
COc1cc2c(cc1OC)CN(C(=O)c1cc(C3CC3)nn1-c1ccccc1)CC2	-5%	u	7%
C[C@H](CO)N1C[C@H](C)[C@@H](CN(C)Cc2ccc(-c3ccccc3)cc2)Oc2ccc(NC(=O)Cn3cnnn3)cc2C1=O	11%	-3%	2%
COC(OC)c1ccnc(-c2ccc(OC(=O)c3cccs3)cc2)n1	7%	24%	-3%
CCN1C(=O)[C@H]2[C@H]3CN=C(SCC(=O)c4ccccc4)N3[C@@](CC)(C(=O)OC)[C@H]2C1=O	-16%	u	3%
CCc1ccccc1OCC(=O)OCC(=O)N1CC(=O)Nc2ccccc21	3%	-1%	3%
O=C1NC[C@@H](Cc2cccc3ccccc23)N(CCCCC2CCCCC2)C1=O	-5%	-10%	-4%
CC(=O)C[C@@H](O)CC(=O)[C@@H]1OC(=O)CCCCCCc2ccccc21	8%	6%	-12%
COc1ccc(CC(=O)OCC(=O)c2ccc(S(=O)(=O)N3CCCCC3)cc2)cc1	-1%	-20%	-1%
OCC1=C[C@@H](O)[C@@H]2C=CO[C@@H](O[C@@H]3O[C@H](CO)[C@@H](O)[C@H](O)[C@H]3O)[C@H]12	3%	-15%	0%
COC(=O)C1=C(c2ccc(OC(F)(F)F)cc2)C[C@@H]2CC[C@H]1N2C(=O)NC1CCCCC1	8%	u	1%
CN(C)CCN(C(=O)CCc1ccccc1)c1nc2c(F)cc(F)cc2s1	-10%	-9%	-2%
COc1ccc(OCCSc2ccc(S(=O)(=O)N3CCCC3)cn2)cc1	9%	u	-4%
CCOc1cc(/C=N/N2C(=O)NC3(CCCCC3)C2=O)cc(Br)c1O	0%	-6%	1%
C[C@H](CO)N1C[C@H](C)[C@@H](CN(C)C(=O)NC2CCCCC2)Oc2c(NS(=O)(=O)c3ccc(F)cc3)cccc2C1=O	5%	78%[activator]	-13%
C/C(=N\NC(=O)CN(c1ccc(Oc2ccccc2)cc1)S(C)(=O)=O)C(C)(C)C	8%	-1%	-2%
CC1(C)OC(=O)C=C[C@]2(C)[C@H]3CC[C@@]4(C)[C@H](c5ccoc5)OC(=O)[C@H]5O[C@]54[C@]3(C)C(=O)C[C@@H]12	6%	u	12%
O=C(COc1ccc(Br)cc1CO)Nc1ccc(S(=O)(=O)N2CCCCC2)cc1	0%	u	0%[6.58 µM]
CC[C@@]1(C(=O)OC)N[C@H](CN(C)S(=O)(=O)c2ccc(C(C)(C)C)cc2)[C@@H]2C(=O)N(C)C(=O)[C@@H]21	-26%	-22%	0%
O=C(NC(=S)Nc1ccc(S(=O)(=O)Nc2nccs2)cc1)c1ccc(Br)o1	-1%	52%[activator]	0%
c1ccc(C[C@H]2CN=C(Nc3ccccc3)N2CC2CCCCCC2)cc1	-4%	-26%	6%
COC(=O)[C@H](CC(C)C)N(Cc1ccccc1)S(=O)(=O)N(Cc1ccccc1)[C@@H](CC(C)C)C(=O)OC	-18%	u	-14%
CCc1ccc(Nc2n[n+](-c3ccccc3)c(-c3cccc(Cl)c3Cl)s2)cc1	4%	3%	-5%
CCCCN1CC(=O)N2[C@H]3c4ccc(OC)cc4OC[C@@H]3[C@H](c3ccccc3)[C@]2(C)C1=O	-8%	-19%	u

Brought forward from above: 2 entries, followed by the next part.
SMILES	RE007 growth inh	StopGo reporter	SARS PLP yeast
CCc1ccc(Nc2n[n+](-c3ccccc3)c(-c3cccc(Cl)c3Cl)s2)cc1	4%	3%	-5%
CCCCN1CC(=O)N2[C@H]3c4ccc(OC)cc4OC[C@@H]3[C@H](c3ccccc3)[C@]2(C)C1=O	-8%	-19%	u
O=C(CN1C(=O)NC2(CCCC2)C1=O)Oc1ccc2ccc(=O)oc2c1	-14%	-6%	-1%
Cc1ccccc1S(=O)(=O)N1[C@@H](c2ccccc2)C(C(=O)O)=CC[C@H]1c1ccc(Cl)cc1	-2%	3%	2%
COc1ccccc1C(=O)Nc1nc(-c2ccc3c(c2)OCCO3)cs1	-1%	-2%	1%
N#Cc1ccc(Nc2nc(-c3ccc(O)cc3O)cs2)cc1C(F)(F)F	-17%	35µM*	0%
NC(=O)CSC1=N/C(=C\c2ccco2)C(=O)N1c1ccc(OC(F)F)cc1	-3%	u	-1%
Cn1c(SCC(=O)NCC2CCCO2)nc2scc(-c3ccccc3)c2c1=O (stereo not given)	-17%	-29%	0%
CCOCCCNCC(=O)Nc1cc(S(=O)(=O)N2CCOCC2)ccc1N1CCOCC1	u	-17%	1%
COc1ccc(CN(C)C(=O)Cn2cnc3c(SC)nc(N)nc32)cc1OC	-11%	0%	-6%
COCCNC(=O)c1onc(CSc2cccc(OC)c2)c1C(=O)NCCOC	-9%	-13%	7%
C=CCOC(=O)C1=C(C)Nc2[nH]c(=O)[nH]c(=O)c2C1c1ccccc1 (stereo not given)	-11%	4%	-3%
Cc1ccccc1OCC(=O)Nc1ccc(N2CCOCC2)cc1N1CCOCC1	8%	3%	2%[6.58 µM]
O=C(COC(=O)c1ccc(Cl)cc1[N+](=O)[O-])NCc1ccco1	11%	-6%	2%
O=[N+]([O-])c1ccccc1CNCCCCCO	-9%	2%	-7%
CCS(=O)c1ccccc1C(=O)OCC(=O)Nc1cccc(S(=O)(=O)N2CCCCC2)c1 (stereo not given)	-5%	u	0%
COC(=O)C1=C(c2cccc(C#N)c2)C[C@@H]2CC[C@H]1N2C(=O)N1CCC(C)CC1	-3%	0%	-1%
c1ccc([C@H]2CN3C(=N2)Sc2ccccc23)cc1	u	12%	-8%
COc1cc(CCCN2CCNC[C@@H]2Cc2ccc(O)cc2)cc(OC)c1OC	15%	-2%	-3%
O=C(CSc1nnc(CNC(=O)c2ccccc2F)o1)Nc1ccc2c(c1)OCO2	-15%	-20%	6%
COc1ccc(Cc2nnc(SCC(=O)c3c(N)n(C4CC4)c(=O)[nH]c3=O)o2)cc1	26%	67%[activator]	4%
CCOc1ccccc1C(=O)OCC(=O)Nc1cccc(S(=O)(=O)N2CCCC2)c1	-10%	u	-5%
CC(Sc1nnc(C2CC2)n1C1CC1)C(=O)Nc1cccc(S(=O)(=O)N(C)C)c1 (stereo not given)	11%	3%	-3%
CC(=O)c1ccccc1NC(=O)c1cc(S(=O)(=O)N2CCOCC2)ccc1N1CCCC1	0%	-2%	-5%
O=C(NCc1ccccn1)c1ccccc1OCc1ccc(Cl)cc1Cl	10%	u	9%
CCCCn1c(N)c(N(C)C(=O)C2CCCC2)c(=O)[nH]c1=O	12%	3%	1%
CCN(CC(=O)NCc1cccs1)C(=O)c1cccc(Cl)c1	13%	-20%	-2%
Cc1cc(C)cc(OCC(=O)N(C)CC(=O)Nc2ccc(Cl)c(C(F)(F)F)c2)c1	0%	u	-1%
Cc1noc(C)c1S(=O)(=O)N(C)C[C@H]1Oc2ccc(NS(=O)(=O)c3cn(C)cn3)cc2C(=O)N([C@H](C)CO)C[C@@H]1C	-9%	6%	0%
O=C(CSc1nccc(=O)[nH]1)Nc1cccc(S(=O)(=O)N2CCOCC2)c1	0%	-6%	3%
CCN1CCN(C(c2cccs2)C(C)NS(=O)(=O)c2ccc(C)cc2)CC1 (stereo not given)	3%	-3%	1%
CCN(CC(=O)Nc1c(F)cccc1F)C(=O)Cn1c(=O)cnc2ccccc21	6%	-5%	-4%
CC(=O)c1sc(NC(=O)c2cc(S(=O)(=O)N3CCOCC3)ccc2F)nc1C	-14%	-11%	2%
CCCn1c(N)cc(=O)n(CCC)c1=O	14%	-4%	0%
Cn1c(=O)c2cc(S(=O)(=O)NC(Cc3ccccc3)C(=O)NCC3CCCO3)ccc2n(C)c1=O (stereo not given)	2%	-4%	2%

Exported in markdown: part of the list above.
| Compound | RE007 growth inh | StopGo reporter | SARS PLP yeast |
| --- | --- | --- | --- |
| CCN(CC(=O)NCc1cccs1)C(=O)c1cccc(S(=O)(=O)N2CC(C)OC(C)C2)c1 (stereo not given) | -6% | -15% | 4% |
| O=C(COc1ccc(Br)cc1CO)Nc1ccc(S(=O)(=O)N2CCCCC2)cc1 | 0% | u | 0%[6.58 µM] |
| CN(C)CCN(C(=O)CCc1ccccc1)c1nc2c(F)cc(F)cc2s1 | -10% | -9% | -2% |
| CCN(CC(=O)Nc1c(F)cccc1F)C(=O)Cn1c(=O)cnc2ccccc21 | 6% | -5% | -4% |
| c1ccc([C@H]2CN3C(=N2)Sc2ccccc23)cc1 | u | 12% | -8% |

Compound activity deposited in PubChem BioAssay by National Center for Advancing Translational Sciences (NCATS).
